Vaccinia Venus = inhibitors of vaccinia virus (Venus reporter). Vaccinia virus Venus reporter expression, fluorescence. Potency, µM (doses to about 36.5 µM), for the others: at the highest dose activity change, negative = inhibition, actives largely listed as inhibitors. 0.46% of 330,000 active; active means well fitted inhibition curve with a large enough effect; inconclusive means small, poorly fitted or top-dose-only effect; inactive means no such curve, though single readings can be large or run the other way; tested in A549 cells; also: nearly all actives have a fitted effect of over 30% in size; inactives centre near -10
VACV mCherry inh = inhibitors of vaccinia virus infection (mCherry reporter signal); Vaccinia virus mCherry reporter infection, fluorescence; about a quarter of the inactives have no number; Potency, µM (titrated, usually from 36.5 µM), for the others: at the top dose activity change, negative = inhibition, actives largely listed as inhibitors; 0.63% of 310,000 active; active = well fitted inhibition curve with a large enough effect; inconclusive = small, poorly fitted or top-dose-only effect; inactive = no such curve, though single readings can be large or run the other way; tested in A549 cells; also: nearly all actives have a fitted effect of over 35% in size; inactives centre near -10
* hit, by the source's call; i = inactive; ? = inconclusive; . = not tested or not shown; [ ] = another dose, or the depositor's remark. % is scaled to controls: 0 for no effect and ±100 for the full control effect; potency is read from the fitted curve at half-maximal effect.

SMILES	Vaccinia Venus	VACV mCherry inh
C/C(=N\NC(=O)c1ccc2c(c1)OCO2)c1ccc(NC(=O)CCCC(=O)O)cc1	-24%	?
COc1ccccc1C/C(N)=N/OC(=O)/C=C/c1ccccc1	-10%	i
COc1ccc(C2C(C(=O)N3CCN(c4ccc(OC)cc4)CC3)c3ccccc3C(=O)N2C)cc1 (stereo not given)	-19%	-21%
O=C(CC1Sc2ccccc2NC1=O)Nc1ccccc1[N+](=O)[O-] (stereo not given)	-24%	-15%
Cc1cc2oc(C(=O)Nc3c(C)n(C)n(-c4ccccc4)c3=O)c(C)c2cc1C	?	.
COc1ccc(CCNC(=O)C(=O)NCC(c2ccco2)S(=O)(=O)c2cccs2)cc1OC (stereo not given)	-11%	0%
O=C(c1ccco1)N1CCCC(N2CCN(c3cccc(C(F)(F)F)c3)CC2)C1 (stereo not given)	-26%	-13%
O=C(N/N=C/c1ccc2c(c1)OCO2)c1ccc(NC(=O)c2ccccc2Cl)cc1	-26%	?
COc1ccc(C)cc1S(=O)(=O)N(CC(=O)Nc1cccc([N+](=O)[O-])c1)c1ccc(C)c(C)c1	-10%	-3%
NS(=O)(=O)c1ccc(N=C2C(=O)Nc3ccccc32)cc1	-8%	?
CCOC(=O)/C(=N/O)C1=NC(C)(C)Cc2cc(C)c(C)cc21	-9%	-7%
CCN(CC)CCCn1c2c(c(SCC(=O)Nc3ccc(C)c(F)c3)nc1=O)CCC2	-12%	-24%
Cc1ccc([C@@H]2[C@@H]3C(=O)N(c4ccccc4)C(=O)[C@@H]3[C@]3(C)C(=O)N(CC4CC4)CC(=O)N23)o1	-6%	-4%
CCC(O)CNC(=O)c1cnn(-c2ncc3c(n2)-c2ccccc2CCC3)c1C1CC1 (stereo not given)	-6%	-5%
O=C(O)CCCC(=O)NCCCc1ccccc1	-8%	.
O=C(CNC(=O)c1ccccc1)N/N=C/c1cccs1	-6%	i
COC(=O)c1cc(S(=O)(=O)Nc2cc(OC)cc(OC)c2)cn1C	-23%	-16%
CCCCCCC1CC(C)(/C(C)=N/NC(N)=O)OC1=O (stereo not given)	-13%	i
CCOc1cccc(OCCCOc2cccc3cccnc23)c1	-9%	-1%
COCCCN1C(=O)c2[nH]nc(-c3ccccc3O)c2C1c1ccc(OCc2ccccc2)cc1 (stereo not given)	-9%[7.34 µM]	-11%[7.34 µM]
COc1ccc(S(=O)(=O)Nc2ccccc2OC)cc1C	-13%	-2%
O=C(Nc1ccccc1Br)c1cc(CN2CCCC2)on1	-7%	-2%
CCCNC(=O)CN(c1ccccc1)S(=O)(=O)c1ccc(OC)c(OC)c1	-8%	-1%
S=c1cnc2ccccc2[nH]1	-5%	i
CCOc1ccc(N2CC(NS(=O)(=O)c3cccs3)CC2=O)cc1 (stereo not given)	-9%	0%
COc1cc(NS(=O)(=O)c2cc(C)ccc2OC)c(OC)cc1Cl	-18%	-7%
Cc1ccccc1NC(=S)Nc1ccccn1	-7%	?
Cc1c(Cl)cccc1NC(=O)Cn1c(CCC(=O)O)ccc1-c1cccs1	0%	1%
Cc1ccc(C)c(Cn2c(=O)n(CCCCC(=O)NCc3ccccc3Cl)c(=O)c3ccccc32)c1	?	?
Nc1cc(Nc2ccccc2)ccn1	-14%	?
COc1ccc(-c2c(C)nn3c(-c4ccccc4)cc(C)nc23)cc1	-3%	10%
CCN(CC)S(=O)(=O)c1ccc(Cl)c(C(=O)NC(C)C(c2cccs2)N2CCCC2)c1 (stereo not given)	-6%	-5%
CCCCN1CC(c2nc3ccccc3n2CCCCOc2ccc(C)cc2C)CC1=O (stereo not given)	-12%	-15%
Nc1nc2ccc(Br)cc2s1	-20%	-18%
O=C(Nc1cccc(OC(F)(F)F)c1)c1ccc(-c2cccnc2)c2ccoc12	?	-3%
Cc1c(/C(O)=C2/C(=O)C(=O)N(CCN(C)C)C2c2ccc(C(C)C)cc2)cnn1-c1ccccc1 (stereo not given)	-11%	0%
CC(C)CC1(C)NC(=O)NC1=O (stereo not given)	-8%	.
Cc1ccc(C(=O)/C=C/c2ccc(-c3ccc(C)cc3)o2)cc1	-2%	-7%
COc1ccc(/C=c2/sc3nc(-c4ccccc4)c(-c4ccccc4)n3c2=O)cc1	-1%	-1%
Cc1ccc(NC(=O)COC(=O)C2CC2(Cl)Cl)cc1C (stereo not given)	-21%	-12%
CCCC1=Nc2cc(C(=O)NC3CCC(C)CC3)ccc2Sc2ccccc21 (stereo not given)	-21%[7.34 µM]	-26%[7.34 µM]
O=C(COc1ccc(S(=O)(=O)NCc2ccccc2)cc1Cl)NCc1ccccn1	-10%	-1%
C[C@@H](CN1C(=O)C(=O)NC[C@@H]1C)NC(=O)CC12CC3CC(CC(C3)C1)C2	-2%	i
COc1cc(NC(=O)c2cc(C)on2)cc(C(=O)Nc2cccc(C(F)(F)F)c2)c1	?	?
O=C(c1cc(COc2c(F)cccc2F)on1)N1CC[C@@H]2CCCC[C@H]2C1	-18%	-8%
CCOC(=O)/C(=N/Nc1ccc(OC)cc1)N1CCCc2ccccc21	?	-22%
O=C(CSc1ccccn1)Nc1cccc(NC(=O)CSc2ccccn2)n1	-15%	-10%
CCOC(=O)c1cnn(-c2cc(C)nc3c(-c4ccccc4)cnn23)c1N	-10%	.
CC1CCCCN1C(=O)CSc1nc2ccccc2[nH]1 (stereo not given)	-11%	i
O=[N+]([O-])c1cccc(C(=Nc2ccccc2)NO)c1	-13%	-16%
O=C(N/N=C\c1ccoc1)c1ccco1	-17%	-4%
CCOc1ccc(C2c3cc(OCC)c(OCC)cc3CC(=O)N2c2ccc(C(=O)O)cc2)cc1OCC (stereo not given)	-21%	i
O=C(C[C@H]1CC[C@@H]2[C@H](COC[C@H](O)CN2Cc2cccc(F)c2)O1)NCc1cccc(F)c1	-16%	i
Cc1ccc(S(=O)(=O)NCC(=O)N(CC(=O)NCc2ccco2)Cc2ccc(F)cc2)cc1	-6%	-10%
Cc1ccc([C@@H]2C[C@H]3[C@@H](CN2S(=O)(=O)c2ccc(Cl)cc2)C(=O)C[C@@H](c2cccc(Cl)c2)N3S(=O)(=O)c2ccc(C)cc2)cc1	-14%	-2%
COc1ccc(/C=N/N2CCN(c3ccc(Cl)cc3)CC2)cc1O	-20%	-15%
CS(=O)(=O)c1ccc2nc(NC(=O)CN3CCC(Cc4ccccc4)CC3)sc2c1	-14%	-27%
COc1ccc(C(CC(=O)N2CCC3(CC2)OCCO3)NS(=O)(=O)c2ccc(C)cc2)cc1 (stereo not given)	-21%	.
Nc1nnc2cc(Br)ccc2n1	-6%	?
Cc1onc(-c2ccccc2Cl)c1C(=O)NCCCN1CCOCC1	-3%	-14%

(next part)
SMILES	Vaccinia Venus	VACV mCherry inh
Cc1cccc(NC(=O)CCN2CCN(c3ccccc3F)CC2)c1	4%	-12%
Cc1oc(-c2ccc(F)cc2)nc1CN(Cc1ccccn1)CC1CCCO1 (stereo not given)	1%	-4%
Cc1cccc(N2CCN(C(=O)c3cccc(N4CCCC4=O)c3)CC2)c1C	-29%	?
Cc1cc(N/C=C\C(=O)c2ccc(Cl)c(Cl)c2)no1	-3%	.
FC(F)Sc1ccc(NC(=S)NCc2ccccc2)cc1	?	-1%
Cc1cc(C(C)(C)C)oc1C(=O)N(CC(=O)NC1CCCC1)c1c(C)cccc1C	?	?
COc1ccc(OCC(=O)NS(=O)(=O)c2ccccc2)cc1	-7%	-11%
Cc1ccccc1S(=O)(=O)Oc1ccccc1C(=O)Oc1ccccc1	?	?
Cc1ccc(NC(=S)NNC(=S)NNc2ccccc2)cc1C	-10%	i
Cc1cc(C(C)(C)C)oc1C(=O)N(CC(=O)NC1CCCC1)Cc1ccccc1Cl	?	-21%
OCCc1ccc(-c2ccc(Cl)cc2)o1	-12%	-2%
CC1CCN(C(=O)CSc2nc3c(cnn3-c3ccccc3)c(=O)[nH]2)CC1	-1%	-4%
CCOc1cc(N2CCOCC2)c(OCC)cc1NC(=O)CN1C(=O)NC(CC)(c2ccc(F)cc2)C1=O (stereo not given)	-17%	-7%
O=C(CCC(=O)c1ccccc1)Nc1cccnc1	5%	-7%
CCOC(=O)N1CCN(CCC(=O)Nc2ccccc2)CC1	-8%	i
C/C(=N\NC(=O)Cn1c(C)nc2ccccc21)c1cccs1	-22%	i
CCc1cccc(C)c1NC(=S)NCC1CCN(c2ccc(OC)cc2)C1 (stereo not given)	7%	?
Cc1ccc(C(=O)NCC(=O)N2CCCN(S(=O)(=O)c3ccc(C)cc3)CC2)cc1	-21%	-9%
CC(=O)c1ccc(OC(=O)N(C)c2ccccc2)cc1	-8%	i
O=C(NNC(=O)c1ccc([N+](=O)[O-])o1)c1ccccc1	?	.
COc1ccc(Br)cc1CN(C)C(=O)c1ccc2c(c1)NC(=O)C(C)S2 (stereo not given)	-5%	i
COc1ccc(Cl)cc1C(=O)Nn1c(C)nc2ccccc2c1=O	-8%	-8%
CSc1cccc(NC(=O)c2ccc3c(c2)CCCN3S(C)(=O)=O)c1	-18%	i
Cc1cc(=O)[nH]c(N2CCCNCC2)n1	-5%	i
O=C(CCl)NN=C(c1ccccc1)c1ccccc1	15%	-13%
O=c1[nH]c(Nc2ccc3c(c2)OCCO3)nnc1Cc1ccccc1	1%	-9%
Fc1ccc(-[n+]2nc(Nc3ccccc3)sc2-c2c(Cl)cccc2Cl)cc1	?	?

Of the compounds above, 12 have a furan ring, fused or not.
SMILES	Vaccinia Venus	VACV mCherry inh
Cc1cc2oc(C(=O)Nc3c(C)n(C)n(-c4ccccc4)c3=O)c(C)c2cc1C	?	.
COc1ccc(CCNC(=O)C(=O)NCC(c2ccco2)S(=O)(=O)c2cccs2)cc1OC (stereo not given)	-11%	0%
O=C(c1ccco1)N1CCCC(N2CCN(c3cccc(C(F)(F)F)c3)CC2)C1 (stereo not given)	-26%	-13%
Cc1ccc([C@@H]2[C@@H]3C(=O)N(c4ccccc4)C(=O)[C@@H]3[C@]3(C)C(=O)N(CC4CC4)CC(=O)N23)o1	-6%	-4%
O=C(Nc1cccc(OC(F)(F)F)c1)c1ccc(-c2cccnc2)c2ccoc12	?	-3%
Cc1ccc(C(=O)/C=C/c2ccc(-c3ccc(C)cc3)o2)cc1	-2%	-7%
O=C(N/N=C\c1ccoc1)c1ccco1	-17%	-4%
Cc1ccc(S(=O)(=O)NCC(=O)N(CC(=O)NCc2ccco2)Cc2ccc(F)cc2)cc1	-6%	-10%
Cc1cc(C(C)(C)C)oc1C(=O)N(CC(=O)NC1CCCC1)c1c(C)cccc1C	?	?
Cc1cc(C(C)(C)C)oc1C(=O)N(CC(=O)NC1CCCC1)Cc1ccccc1Cl	?	-21%
OCCc1ccc(-c2ccc(Cl)cc2)o1	-12%	-2%
O=C(NNC(=O)c1ccc([N+](=O)[O-])o1)c1ccccc1	?	.
